Assay outcomes from PubChem.
Mtb H37Rv = M. tuberculosis H37Rv growth inhibitors, H37Rv strain (AID 1626); one-dose inhibition, % at 10 µM; IC50 in µM for titrated hits; M. tuberculosis H37Rv growth inhibition; higher % means a stronger effect; 220,000 compounds, 0.95% hits;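 active = confirmed in a dose series; inconclusive = inhibition above 80% but not taken into the dose series; inactive = below 80% or under 30% at every dose of the series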;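 also: bacteria incubated seven days before Alamar blue readout; 0% = bacteria only wells and 100% = bacteria with antibiotic wells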
Mtb betalactam = beta-lactam sensitization of Mtb H37Rv, H37Rv; M. tuberculosis H37Rv growth with meropenem, percent inhibition; hits of this screen are not shown here; inhibition, % at 25 µM; 330,000 compounds, 0.27% hits;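 active = about 74% or more and at least 40 points above the plate without the antibiotic, then above 30% in a dose series; inconclusive = first-round hits that could not be retested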;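 also: growth measured after seven days incubation then overnight dye step; 0% = bacteria only wells and 100% = bacteria with antibiotic; twin plates without the antibiotic show which effects depend on it; some results filed as inactive read as strong as hits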
YopH inh = YopH tyrosine phosphatase inhibitors, primary screen, biochemical, fluorescence Ex485/Em525; inhibition, %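 (about 10 µM by stock and volumes)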; 140,000 compounds, 0.16% hits;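 active = inhibition of 50% or more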;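 also: controls were vehicle for no effect and minimum signal wells for full effect; inactives centre near -20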
Arbovirus inh = antivirals against arbovirus infection, primary screen, cell-based, full library, 10K replicate subset; arbovirus infection cell-based antiviral screen; inhibition, % at 10 µM; 200,000 compounds, 0.37% hits; AID 1251, 2008;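 active = inhibition from about 30%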;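 also: bluetongue infection of BSR cells; cell survival read as ATP light after 72 h; 0% = infected wells without compound and 100% = uninfected wells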
RecA splice inh = Mtb RecA intein splicing inhibitors, primary screen, biochemical, fluorescence, HTS. Protein RecA (Mycobacterium tuberculosis (strain ATCC 25618 / H37Rv)), P9WHJ3. cell-free RecA intein splicing. inhibition, %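 (about 9 µM by stock and volumes)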. 290,000 compounds, 0.75% hits; in the data active = inhibition above about 30%; inconclusive = no clear call, values can overlap the other calls;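 also: 0% = vehicle wells and 100% = reference inhibitor control wells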
Target sequence (P9WHJ3 whole entry, looked up, canonical isoform): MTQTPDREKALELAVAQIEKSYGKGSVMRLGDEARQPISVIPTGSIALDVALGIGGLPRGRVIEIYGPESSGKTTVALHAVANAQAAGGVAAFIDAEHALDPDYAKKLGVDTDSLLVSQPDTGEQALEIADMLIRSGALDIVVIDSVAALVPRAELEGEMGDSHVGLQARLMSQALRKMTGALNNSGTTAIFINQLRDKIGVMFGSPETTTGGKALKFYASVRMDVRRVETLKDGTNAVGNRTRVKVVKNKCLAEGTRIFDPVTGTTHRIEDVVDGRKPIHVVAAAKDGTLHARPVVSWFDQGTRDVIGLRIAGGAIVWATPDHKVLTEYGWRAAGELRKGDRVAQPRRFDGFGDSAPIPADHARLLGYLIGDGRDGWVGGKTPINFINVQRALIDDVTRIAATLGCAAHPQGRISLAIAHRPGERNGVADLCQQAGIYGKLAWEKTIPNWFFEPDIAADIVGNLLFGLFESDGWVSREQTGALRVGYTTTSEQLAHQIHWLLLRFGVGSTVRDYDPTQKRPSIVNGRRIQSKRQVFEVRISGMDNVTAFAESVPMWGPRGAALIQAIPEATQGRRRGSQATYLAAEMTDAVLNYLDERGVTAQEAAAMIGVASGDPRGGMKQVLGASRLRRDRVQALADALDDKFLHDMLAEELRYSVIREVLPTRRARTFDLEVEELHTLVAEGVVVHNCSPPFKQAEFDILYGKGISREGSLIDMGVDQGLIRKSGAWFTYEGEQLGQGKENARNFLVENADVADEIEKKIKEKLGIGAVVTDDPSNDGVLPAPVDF
Arbovirus inh repeat = further read-out of Arbovirus inh, marked with its call; inhibition, %; measured here: 10K subset replicate screen; many hits read low in the repeat;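 first of two repeat runs on a subset; 0% = infected and 100% = uninfected wells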
Numbers without * were called inactive; ? = inconclusive; nt = no result given; & = joins results of further samples. An excerpt, so the mix of outcomes need not match the whole.

SMILES	Mtb H37Rv	Mtb betalactam	YopH inh	Arbovirus inh	RecA splice inh	others
O=C(c1ccc(Br)s1)N1CCN(C/C=C/c2ccccc2)CC1	-0.7%	22.4	-0.2	11.8	nt
COc1ccccc1NS(=O)(=O)c1ccc(NC(=O)c2[nH]nc(OC)c2[N+](=O)[O-])cc1	nt	-6.9	nt	nt	-1.7
CCC1CCCCN1C(=O)COc1ccccc1NC(C)=O (stereo not given)	1.5%	-7.5	nt	9.2	3.6
C=CCN1CC(=O)N2C(C)c3[nH]c4ccccc4c3C[C@H]2C1=O (stereo not given in full)	nt	0.8	nt	nt	-1.3
C/C(CC(=O)N(C(C)C)C(C)C)=N\NC(=O)COc1ccc(Br)cc1Br	-2.1%	2.0	-22.6	0.6	2.6
COC(=O)CCN(C(=O)c1cc([N+](=O)[O-])cc([N+](=O)[O-])c1)c1ccccn1	-9.2%	1.2	nt	-7.7	-0.3
O=C(O)c1ccccc1/C=N/N1CCN(C2c3ccccc3-c3ccccc32)CC1	2.5%	-0.1	nt	-9.0	1.7
O=C(CCCOc1ccc(Cl)cc1)N1CCCCC1	0.4%	-2.7	7.4	-2.1	-0.6	Arbovirus inh repeat=-2.5
CC1(C)Cc2nc(N)c(=O)sc2C1	-1.5%	-4.5	-41.6	0.6	1.1
CN(C)S(=O)(=O)c1ccc(NC(=O)CSc2nnnn2C)cc1	2.2%	-1.7	nt	nt	-1.5
CCOC(=O)C1CCN(C(=O)C23CC4CC(CC(C4)C2)C3)CC1	3.0%	-6.5	-3.0	2.9	-0.7
COc1cccc(CN2CCNC(=O)C2CC(=O)N(C)CCc2ccccn2)c1OC (stereo not given)	7.1%	5.8	nt	3.9	-0.2
Cc1ccccc1Cn1cc(NC(=O)CCCn2nc([N+](=O)[O-])cc2C)cn1	-7.5%	-4.5	nt	-1.3	-0.2
O=C(N/N=C/c1ccc(O)cc1O)NC12CC3CC(CC(C3)C1)C2	nt	?	nt	nt	-1.4
O=C(c1cccc2ccccc12)N1CCN(c2ccc([N+](=O)[O-])c(N3CCOCC3)c2)CC1	-0.3%	-1.9	-5.9	10.8	0.2
O=[N+]([O-])c1ccc2nc(NS(=O)(=O)c3ccccc3[N+](=O)[O-])sc2c1	nt	1.7	nt	nt	1.8
COc1cccc(N2[C@@H](CC(=O)O)c3ccc(/C=C/C(=O)O)cc3S2(=O)=O)c1	-3.6%	-12.3	nt	nt	-1.4
O=C1CC(NC(=O)C(F)(F)F)c2cc3c(cc21)OCO3 (stereo not given)	0.4%	-4.2	nt	-0.1	-0.7
CC(=O)Nc1ccc(/C=C/c2ccc3c([N+](=O)[O-])cccc3n2)cc1	-0.6%	4.1	nt	-3.9	-0.9
CC(NC(=O)c1cc(-c2cccs2)on1)c1ccccc1 (stereo not given)	5.6%	-13.1	-6.2	5.6	-1.1
COc1ccc(NC(=O)c2cn(CCC#N)nc2-c2cccc(Br)c2)cc1	nt	7.1	nt	nt	-1.2
COC(=O)Cn1cnc2scc(-c3ccc(C)cc3)c2c1=O	nt	1.2	nt	nt	-1.3
Cc1ccc(CC2C(=O)N(CC(=O)O)C(=O)C2C)cc1 (stereo not given)	-14.9%	-4.6	-23.7	4.0	2.4
CCc1ccccc1NC(=S)Nc1cc(OC)c(NC(=O)C(C)C)cc1OC	nt	-1.6	nt	nt	1.2
CC[C@@]12C(=O)N(c3cccc(Br)c3)C(=O)N1[C@H](c1ccc(Br)cc1)[C@@H]1C(=O)N(C(C)(C)C)C(=O)[C@@H]12	nt	0.8	nt	nt	1.6

Further entries follow:
SMILES	Mtb H37Rv	Mtb betalactam	YopH inh	Arbovirus inh	RecA splice inh	others
Cc1ccc(Cn2nc(C)c(NC(=O)c3noc4c3CCCCC4)c2C)cc1	6.2%	6.5	-16.8	-3.4	3.1
O=C(CCNc1n[nH]c(=O)[nH]c1=O)N1CCCCC1	-22.5%	9.0	-13.6	8.6	0.9
O=C(CCS(=O)(=O)c1ccccc1)Nc1ccc2c(c1)OCO2	0.1%	-8.1	nt	-0.3	-0.8
COc1ccccc1C(=O)OCc1c(F)cccc1Cl	-0.9%	25.7	-33.8	-0.2	-0.6
CC(C)C(C(=O)NC(C)(C)C)N1C(=O)c2ccccc2C1=O (stereo not given)	-6.3%	-2.1	-25.4	8.6	-0.7	Arbovirus inh repeat=6.6
O=C(Nc1ccc2c(c1)CCC2)C1CCCN(c2ncccn2)C1 (stereo not given)	6.5%	3.5	-32.1	-2.4	1.1
CCCc1nc2oc3c(=O)[nH]cnc3c2c2c1CCCC2	-0.9%	-4.0	-17.4	8.8	-1.1
C=C(c1ccccc1)c1ccc(N(C)C)cc1	nt	-0.9	nt	nt	-3.6
O=C(O)C1C2CCC(O2)C1C(=O)Nc1ccc(OC(F)F)cc1 (stereo not given)	nt	-2.7	nt	nt	-0.7
COc1ccc(-[n+]2c(-c3ccccc3)cc(-c3ccc(C)cc3)cc2-c2ccccc2)cc1	nt	100.0	nt	nt	-3.9
CCC(C)NC(=O)c1ccccc1NC(=O)C(C)N(c1ccccc1)S(C)(=O)=O (stereo not given)	-3.8%	-1.4	-14.7	-27.4	3.1
CC(C)Nc1nc(NC(C)C)nc(Oc2ccc(OCc3ccccc3)nn2)n1	6.2%	-7.0	4.0	0.5	3.0
O=C(CN1CCN(Cc2ccccc2Cl)C1=O)NCc1ccco1	-3.1%	-4.9	-36.1	-1.7	nt
CCCCN(CCCC)c1ncnc2nc[nH]c12	8.6%	54.3	nt	19.2	2.0
CC1(C)Cc2nc(Cl)c(C#N)cc2CO1	-17.1%	1.3	nt	2.5	-2.3
CC1CCC(C(C)C)C(OC(=O)Cn2c(-c3ccc(Br)cc3)[n+](C)c3ccccc32)C1 (stereo not given)	?	100.0&100.4	nt	-33.1&-22.3	18.5
CCOc1ccc(NC(=O)c2sc3nc(N4CCOCC4)c4c(c3c2N)CC(C)(C)OC4)cc1	nt	2.7	nt	nt	-10.2
CCOC(=O)C1CCN(C(=O)COc2cc(C)c(Br)cc2C)CC1	7.0%	85.3	-19.0	5.7	4.8
CC(OC(=O)c1ccccc1O)C(=O)Nc1ccc(Cl)cn1 (stereo not given)	51.1%	0.8	nt	-2.4	1.8
CCN(CC)c1ccc(CN(C(=O)c2ccco2)C2CCS(=O)(=O)C2)cc1 (stereo not given)	nt	-4.8	-14.9	5.4	nt
COc1cc2c(cc1OC)C(C(=O)N1CCCCC1)C(c1ccccc1F)N(C)C2=O (stereo not given)	-3.7%	-1.9	8.3	8.0	-0.3
CC(=O)c1ccc(S(=O)(=O)N2CCN(C(=O)CSc3ccc(C)c(C)c3)CC2)cc1	nt	7.8	nt	nt	0.9
CC1CCCC(NC(=O)c2ccc3snnc3c2)C1C (stereo not given)	nt	-8.2	nt	nt	0.3
CC(=O)N1CCOc2cc(S(=O)(=O)NC(C)c3ccccc3)c(Cl)cc21 (stereo not given)	nt	2.2	nt	nt	0.5
CC(=O)NC(Cc1ccc(F)c(F)c1)C(=O)NC1CCN(C(=O)c2ccc(Cl)cc2)CC1 (stereo not given)	nt	2.1	nt	nt	-0.1

New compounds follow.
SMILES	Mtb H37Rv	Mtb betalactam	YopH inh	Arbovirus inh	RecA splice inh	others
CC1CCN(C(=O)CSC2=NS(=O)(=O)c3cc(F)ccc3N2)CC1	nt	-5.5	nt	nt	-1.9
O=C(Cn1cnc2c(oc3ccccc32)c1=O)NCc1ccco1	-4.7%	3.4	-14.9	5.1	-0.9
Cc1ccc2cc(C3CC(c4ccco4)=NN3C(=O)CCCC(=O)O)c(Cl)nc2c1 (stereo not given)	10.3%	0.7	nt	nt	1.0
CCOC(=O)Cn1c(=NC(=O)c2cc(-c3cccs3)nc3ccccc23)sc2cc(S(N)(=O)=O)ccc21	7.8%	8.7	-9.3	-8.6	-16.5
O=C(COc1ccccc1Cl)Nc1cc(Cl)ccc1O	6.8%	nt	nt	0.6	0.0
CC(OC(=O)c1cccc(-n2cnnn2)c1)C(=O)N(C)c1ccccc1 (stereo not given)	nt	-15.4	nt	nt	17.2
CC1CCCCC12NC(=O)N(CC(=O)c1ccc[nH]1)C2=O (stereo not given)	-2.1%	8.9	-22.8	2.7	3.1
Cc1ccccc1Cc1c(C)nc2c(C(=O)N3CCN(Cc4ccc5c(c4)OCO5)CC3)cnn2c1C	10.3%	88.8	-23.7	nt	9.0
O=C(/C=C/c1ccccc1)NC(=S)N1CCSCC1	-4.1%	-10.3	nt	-0.6	12.8
CCCC(=O)Nc1nc2ccc(S(=O)(=O)N3CCCCC3)cc2s1	2.9%	2.5	-27.5	-7.1	0.6	Arbovirus inh repeat=-7.4
CCOC(=O)c1[nH]c2ccc(OC)cc2c1NC(=S)N1CCN(c2ccccc2)CC1	3.8%	0.7	-30.5	-5.8	0.1
Cc1cccc(-c2nnc3n2N=C(c2ccccc2Br)CS3)c1	nt	-3.5	-43.5	-6.4	1.1
O=c1[nH]c(Cc2ccc(F)cc2)nc2scc(-c3ccc(F)cc3)c12	11.2%	3.2	-20.0	11.7	-0.2
Cc1cc(NC(=O)c2ccc(Cl)cc2)c(C)cc1O	4.4%	-5.2	nt	-4.9	5.1
CN(C(=O)c1cnccn1)c1c(N)n(Cc2ccccc2)c(=O)[nH]c1=O	nt	-5.0	nt	nt	2.5
CCCS(=O)(=O)N1CCC(C(=O)NCc2ccco2)CC1	-1.7%	3.6	-23.3	-2.0	-4.6
CCCCCNC(=O)CCn1c(=O)oc2ccccc21	-10.8%	1.4	-87.7	1.2	-2.1
COc1ccc(S(=O)(=O)NNC(=S)NCCc2ccccc2)c(OC)c1	nt	-1.9	nt	nt	11.6
COc1ccc(OC)c(NC(=S)NC(=O)c2ccc(Br)o2)c1	nt	-4.3	nt	nt	-1.9
O=C(N/N=C/c1cccnc1)c1sc2ccccc2c1Cl	nt	97.9	nt	nt	-2.3
CCOC(=O)c1ccc(S(=O)(=O)Nc2ccccc2-c2nnn(CC)n2)cc1	-11.1%	nt	-33.1	6.8	8.6
CC(=O)Nc1nnc(Cc2ccccc2)s1	-7.6%	-1.4	6.8	-9.4	-4.3
CCCCN1C(=O)N(c2nnc(C(C)(C)C)s2)C(O)C1c1ccc(C)cc1 (stereo not given)	2.5%	4.8	nt	nt	6.7
CC(C)n1nnnc1SCC(=O)N1CCN(C(=O)c2ccco2)CC1	-6.8%	-3.5	13.9	2.2	0.9
N=C1C(c2nc3ccccc3s2)=C(O)CN1CCCO	-1.7%	-8.0	-45.2	7.3	-7.3

Reprinted from the part before: 3 compounds, then new ones.
SMILES	Mtb H37Rv	Mtb betalactam	YopH inh	Arbovirus inh	RecA splice inh	others
CCCCN1C(=O)N(c2nnc(C(C)(C)C)s2)C(O)C1c1ccc(C)cc1 (stereo not given)	2.5%	4.8	nt	nt	6.7
CC(C)n1nnnc1SCC(=O)N1CCN(C(=O)c2ccco2)CC1	-6.8%	-3.5	13.9	2.2	0.9
N=C1C(c2nc3ccccc3s2)=C(O)CN1CCCO	-1.7%	-8.0	-45.2	7.3	-7.3
Cc1nnc(SCCn2c(N3CCN(C)CC3)nc3c2c(=O)n(C)c(=O)n3C)s1	-5.5%	0.2	-52.3	0.7	0.0
CC(C)NC(=O)Cn1cc(S(=O)(=O)N2CCCC2)c(S(=O)(=O)N2CCCC2)c1	nt	-1.1	nt	nt	-2.1
O=C1/C(=C/c2ccc(O)c(O)c2)Oc2cc(O)ccc21	5.1%	-17.9	nt	nt	nt
Cc1cc(NC(=O)/C(C#N)=C/c2ccc(-c3cccc(C(F)(F)F)c3)o2)n(-c2ccccc2)n1	nt	7.7	-15.8	-1.1	-5.4
Cc1ccsc1C(=O)C1CCCN(Cc2cccc(OCCO)c2)C1 (stereo not given)	6.1%	6.7	nt	7.7	1.6
O=C(COc1ccc(-c2nnc(N3CCCCC3)c3ccccc23)cc1)N1CCCCC1	9.0%	-4.3	-5.4	0.0	2.6
COC(=O)c1sc2nc(N3CCCCC3)c3c(c2c1N)CC(C)(C)N(C)C3	-16.1%	nt	-6.7	nt	nt
CC1CCN(S(=O)(=O)c2ccc(NC(=O)c3ccco3)cc2)CC1	nt	-0.2	nt	nt	2.2
COc1cccc(CN2CCN(Cc3c(C)nn(C(C)C)c3C)CC2CCO)c1 (stereo not given)	-2.0%	-9.9	nt	0.6	-1.9
CC(C)(C)Sc1nc(O)cc(=O)[nH]1	-9.6%	-4.7	-24.0	1.0	-1.2
CCOC(=O)/C(C#N)=C/c1cc2ccccc2nc1Cl	-9.0%	nt	-40.6	-2.9	0.0

No new results follow: entries from further up.
SMILES	Mtb H37Rv	Mtb betalactam	YopH inh	Arbovirus inh	RecA splice inh	others
Cc1ccsc1C(=O)C1CCCN(Cc2cccc(OCCO)c2)C1 (stereo not given)	6.1%	6.7	nt	7.7	1.6
O=C(COc1ccc(-c2nnc(N3CCCCC3)c3ccccc23)cc1)N1CCCCC1	9.0%	-4.3	-5.4	0.0	2.6
